From PubChem BioAssay
SARS PLpro yeast = qHTS of Yeast-based Assay for SARS-CoV PLP; Potency, µM (top dose mostly 32.9 µM), inactives show at the highest dose activity, positive = growth rescue; S. cerevisiae expressing SARS-CoV PLpro, growth rescue; control for the full effect not named in the record; AID 485353, 2010; hit rate 0.19% among 330,000; active means well fitted rising curve with a large enough effect; inconclusive means small, poorly fitted or top-dose-only effect; inactive means no such curve, though single readings can be large or run the other way; further: 0% is about no effect; nearly all actives have a fitted effect of over 55% in size; growth read by luminescence after 48 h
NS1 inh = qHTS Assay for Inhibitors of Influenza NS1 Protein Function; S. cerevisiae slowed by influenza A NS1, growth recovery by OD600; Potency, µM (doses to about 46.1 µM), inactives show at the highest dose activity, positive = more growth; hit rate 0.4% among 270,000; active means well fitted rising curve with a large enough effect; inconclusive means small, poorly fitted or top-dose-only effect; inactive means no such curve, though single readings can be large or run the other way; further: nearly all actives have a fitted effect of over 50% in size
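Growth recovery, yeast-based: influenza A NS1 expressed in S. cerevisiae causes slow growth, and suppressors are detected by OD600. The parent strain without NS1 is used as positive control.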
Cruzain Triton = qHTS Assay for Promiscuous and Specific Inhibitors of Cruzain (with detergent) | hit rate 0.43% among 200,000 | AID 1478, 2009 | Potency, µM, without a hit: max response, negative = inhibition, usual class: inhibitors | Cruzipain (Trypanosoma cruzi), P25779 | purified cruzain, Z-FR-AMC fluorescence, 0.01% Triton;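 further: plate controls were neutral wells for no effect and buffer without enzyme for full effect; nearly all actives have a fitted effect of over 40% in size; top concentration of the series not given in the record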
Target sequence (P25779 123-467 limits assumed): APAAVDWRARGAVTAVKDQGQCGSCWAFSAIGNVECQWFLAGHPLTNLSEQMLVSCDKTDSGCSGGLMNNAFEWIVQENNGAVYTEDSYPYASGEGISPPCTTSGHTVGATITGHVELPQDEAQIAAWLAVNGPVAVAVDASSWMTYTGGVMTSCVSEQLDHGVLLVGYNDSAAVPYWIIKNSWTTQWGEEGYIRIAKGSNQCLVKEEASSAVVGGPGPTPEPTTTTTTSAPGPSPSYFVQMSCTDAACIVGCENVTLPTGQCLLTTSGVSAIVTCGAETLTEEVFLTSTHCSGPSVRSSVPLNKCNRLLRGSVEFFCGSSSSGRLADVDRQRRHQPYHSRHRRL
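Read-out: AMC fluorescence (360 nm excitation, 450 nm emission), four reads over 2 min, first-to-third difference used. Conditions: cruzain 1.5 nM, Z-FR-AMC 2 uM, pH 5.5 acetate, 5 mM DTT, 0.01% Triton X-100.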
Lassa entry inh = qHTS for Inhibitors of binding or entry into cells for Lassa Virus; hit rate 1.2% among 300,000; Potency, µM (highest dose often 37.9 µM), inactives show at the top dose activity change, negative = inhibition, actives largely listed as inhibitors; Lassa virus pseudotype entry inhibition, cell reporter; control for the full effect not named in the record; active means well fitted inhibition curve with a large enough effect; inconclusive means small, poorly fitted or top-dose-only effect, or effect the other way; inactive means flat fitted curve, though single readings scatter; tested in HEK293 cells; further: on the % scale 0 is the no-effect control and ±100 the full control effect; nearly all actives have a fitted effect of over 50% in size; luciferase read-out
2A StopGo = High Throughput Screening for Foot and Mouth Disease Virus Antivirals | human cells with a luciferase reporter of 2A StopGo recoding; control for the full effect not named in the record | Potency, µM (doses to about 57.9 µM), inactives show top-dose signal change, negative = less light | hit rate 1.2% among 410,000 | AID 1159524, 2015; active = well fitted falling curve with a large enough effect; inconclusive = small, poorly fitted or top-dose-only effect; inactive = no such curve, though single readings can be large or run the other way; tested in HEK293T cells; further: on the % scale 0 is the no-effect control and ±100 the full control effect; nearly all actives have a fitted effect of over 45% in size; luciferase light after 4 h
Cruzain noTriton = qHTS Assay for Promiscuous and Specific Inhibitors of Cruzain (without detergent); Cruzipain (Trypanosoma cruzi), P25779; AID 1476, 2009; Potency, µM, for the others: max response, negative = inhibition, actives largely listed as inhibitors; hit rate 2.3% among 200,000; purified cruzain, Z-FR-AMC fluorescence, no detergent;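 further: plate controls were enzyme without inhibitor for no effect and buffer without enzyme for full effect; nearly all actives have a fitted effect of over 40% in size; top concentration of the series not given in the record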
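Detergent-free condition (0.00005% Triton X-100) in acetate buffer pH 5.5 with DTT. 1.5 nM enzyme and compound were pre-mixed 15 min, then 2 uM Z-FR-AMC substrate added; reaction progress from fluorescence change between first and third reads (60 s).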
RE007 growth inh = qHTS Assay for Inhibitors of the HIV-1 protein Vpr. S. pombe RE007 Vpr strain, BacTiter-Glo ATP luminescence, 24 h; control for the full effect not named in the record. hit rate 0.21% among 360,000. Potency, µM (series often up to 92.2 µM), for inactives: top-dose activity change, negative = less growth. AID 651644, 2012; active = well fitted falling curve with a large enough effect; inconclusive = small, poorly fitted or top-dose-only effect; inactive = no such curve, though single readings can be large or run the other way;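 further: on the % scale 0 is the no-effect control and ±100 the full control effect; nearly all actives have a fitted effect of over 50% in size; the assay follows cell death caused by Vpr and the record does not say whether a fall means rescue or toxicity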
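Fission yeast RE007 carrying one integrated HIV-1 vpr copy, seeded at OD 0.01 in PMG+AL medium with 23 nL pinned compound. Grown 24 h at 30 degrees; viability read by BacTiter-Glo luminescence after 5 min.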
MARV entry inh = qHTS for inhibitors of binding or entry into cells for Marburg Virus; hit rate 1.8% among 300,000; Marburg virus pseudotyped entry inhibition, cell reporter; control for the full effect not named in the record; about a third of the inactives were read at about 46 µM; Potency, µM (doses to about 37.8 µM), for the others: top-dose activity change, negative = inhibition, hits mostly inhibitors; AID 540276, 2011; active = well fitted inhibition curve with a large enough effect; inconclusive = small, poorly fitted or top-dose-only effect, or effect the other way; inactive = flat fitted curve, though single readings scatter; tested in HEK293 cells; about a fifth of its hits are not listed in these tables; further: on the % scale 0 is the no-effect control and ±100 the full control effect; luciferase read-out
An asterisk follows results filed as active; ? = inconclusive; . = not tested or not shown; & = joins results of further samples; [ ] = remark or other dose. Unless noted, the call rests on the fitted dose curve; in most records, active means well fitted curve in the direction sought with a large enough effect; inconclusive means small, poorly fitted or top-dose-only effect, or another doubt; inactive means no such curve, though single readings can be large; an effect the other way counts as inactive or inconclusive. Potency means the concentration at half of the fitted maximal effect.

SMILES	SARS PLpro yeast	NS1 inh	Cruzain Triton	Lassa entry inh	2A StopGo	Cruzain noTriton	RE007 growth inh	MARV entry inh
COC(=O)Nc1ccc(S(=O)(=O)Nc2ccc(O)cc2)cc1	?	10.6%	-2.4%	-28.4%	.	6.1%	11.5%	7.5%
CCOCCOC(=O)CCSc1n[nH]c(=O)[nH]c1=O	-2.4%	-1.5%	-6.6%	10.9%	.	-3.3%	-5.4%	5.6%
CCCCN(C)CCC(=O)Nc1ccc(Cl)cc1	-3.4%	3.8%	-0.2%	-1.1%	-22.2%	-0.8%	-1.8%	-6.9%
COC(=O)COc1ccc(S(=O)(=O)NC2CCCCCC2)cc1	-3.9%	-140.9%	-0.6%	8.2%	.	-2.9%	3.6%	8.7%
COc1ccc(OC)c2sc(NC(=O)C3CC3)nc12	2.0%	-33.2%	-6.5%	.	-17.6%	-4.0%	-5.2%	.
Cc1nccn1CCCNC(=O)CC1C(=O)NCCN1Cc1ccccc1C(F)(F)F (stereo not given)	1.0%	2.6%	.	.	-15.4%	.	-0.6%	.
COc1ccccc1NC(=S)N(CCN1CCCCCC1)Cc1cccs1	0.2%	.	.	?	-2.7%	.	-21.8%	?
CNC(=O)CN1C(=O)C2C3C=CC(C3)C2C1=O (stereo not given)	1.3%	0.6%	7.0%	5.4%	-15.0%	0.3%	-13.4%	0.7%
CCc1nc2ccccc2c(=O)n1-c1ccc2ccccc2c1	-26.9%	-6.1%	-1.5%	-1.3%	-10.7%	-0.8%	-8.9%	-15.3%[46.1 µM]
COc1cc(/C=N/Nc2ccc(C(F)(F)F)cn2)cc(OC)c1O	-1.6%	.	.	?	1.8%	.	-13.7%	-10.8%
CCOP(=O)(c1ccccc1)C1(C#N)CCCC1 (stereo not given)	0.2%	5.7%	1.2%	-3.5%	-23.8%	-2.7%	16.0%	?
CC(=O)c1ccc(NC(=O)C2=CC(c3cccs3)=NS(=O)(=O)N2C)cc1	-0.2%	8.8%	-9.9%	?	-17.1%&-34.1%	3.6%	-22.2%	-21.5%&-7.4%[46.1 µM]
O=Cc1c(Cl)cccc1Cl	-8.6%	.	-1.9%	.	-22.0%	8.7%	1.0%	.
CCN(CC)S(=O)(=O)c1cc([N+](=O)[O-])ccc1N=Nc1c(O)n(C)c2ccccc12	-16.9%	22.7%	-1.9%	8.5%	-15.8%	1.7%	11.9%	-5.2%
COc1ccc(N/N=C/c2c(O)n(-c3ccc(C)c(C)c3)c(=O)[nH]c2=O)cc1	-18.6%	-1.2%	-8.3%	?	-33.3%	-5.1%	235.2%	-21.6%
CC1(C)Oc2ccc3ccc(=O)oc3c2C(/C=N/O)C1=O (stereo not given)	21.1%	1.2%	-7.6%	18.7%	-15.8%	-3.9%	-0.2%	24.3%
CCOC(=O)C1C2C=CC3(CN(Cc4cccs4)C(=O)C13)O2 (stereo not given)	0.1%	-2.5%	2.9%	13.5%	-16.0%	4.0%	1.6%	2.4%
CC(=O)c1cccc(NS(=O)(=O)c2ccc3[nH]c4c(c3c2)CCCCCC4)c1	.	.	-9.4%	-13.7%[46.1 µM]	27.6%	-14.3%	.	.
CC(NCc1ccc2c(c1)n(C)c(=O)n2C)c1ccccc1 (stereo not given)	.	.	3.4%	-0.7%[46.1 µM]	-9.4%	-0.5%	.	1.8%[46.1 µM]
O=C1OC(Oc2ccccc2)(c2ccccc2)c2ccccc21 (stereo not given)	-10.3%	26.2%	-1.7%	25.9%[14.3 µM]	-10.1%	3.8%	12.3%	-20.1%
Nc1ccc(C(=O)N/N=C/c2cn(Cc3cccc(F)c3)c3ccccc23)cc1	14.0%	-4.8%	.	-22.1%	?	.	5.3%	?
CSCC[C@H](NC(=O)Nc1cccc(C(F)(F)F)c1)C(=O)O	4.4%	-2.4%	-0.9%	-5.2%	-14.4%	5.8%	9.9%	7.3%
COc1ccc(/C=C2\CCn3c2nc2cc(C(=O)O)ccc2c3=O)cc1	-2.4%	8.2%	.	.	-3.7%	.	-3.6%	.
Cc1ccc(CNC(=O)c2ccc3c(c2)c(C)c(C)n3Cc2ccccc2)o1	.	.	-3.4%	0.2%[46.1 µM]	-0.5%	-8.3%	.	.
CC(=O)n1cc(/C=C2/N=C(c3ccccc3)OC2=O)c2ccccc21	17.0%	6.6%	4.47µM*	0.0%	3.0%	20µM*	-7.1%	0.4%
CC(C)=NNc1nc(-c2ccc(N3C(=O)CCC3=O)cc2)cs1	-1.7%	16.3%	.	-5.5%	6.9%	.	-13.1%	-6.5%[14.2 µM]
COc1ccc(C(=O)Nc2cc(C(C)=O)c(/C=C/N(C)C)oc2=O)cc1	2.7%	-2.6%	-5.3%	?	0.2%	-8.2%	-14.9%	1.9%
O=C(OCc1cc(Cl)ccc1OC(F)F)c1cccnc1	2.2%	.	.	-0.7%	2.1%	.	7.4%	29.2%[46.1 µM]
COc1ccc2[nH]c3c(c2c1)CCN1C(=O)N([C@@H](C)C(=O)NC2CC2)C(=O)[C@]31C	16.7%	2.3%	.	.	-14.9%	.	-8.2%	.
O=c1[nH]c(CN2CCCC2)nc2sc3c(c12)CCC3	-0.1%	.	.	0.7%	-0.8%	.	-11.0%	-27.5%[46.1 µM]
Cc1nn(-c2ccccc2)c2sc(C(=O)N(CC(=O)NC3CCCC3)Cc3ccco3)cc12	3.2%	1.5%	-1.4%	?	-23.8%	3.0%	13.3%	?
COc1cccc(/C=C/C(=O)NCc2cn3cc(Cl)ccc3n2)c1	-9.4%	-4.7%	.	2.8%	14.5%	.	-10.1%	-16.5%[46.1 µM]
CCN1C(=O)C(CC(=O)NC2CCCCC2)N(CC)C1=O (stereo not given)	3.5%	-10.5%	6.4%	-4.7%	9.5%	-4.9%	9.3%	?
O=C(CCSc1nc(-c2ccc3c(c2)OCO3)cc(C(F)(F)F)n1)NCc1ccco1	-2.7%	-40.4%	?	.	0.0%	2.5%	4.2%	.
CNC(=S)NNC(=O)c1oc2nc(-c3ccccc3)cc(-c3ccco3)c2c1N	7.9%	13.2%	.	.	-14.9%	.	3.3%	.
Cc1sc2nc(CSc3ccccc3)nc(N3CCC(C(N)=O)CC3)c2c1C	-4.9%	14.9%	.	-7.7%	-15.8%	.	2.0%	-29.6%
COCCN(Cc1ccccc1)C(=O)c1cccc(S(=O)(=O)N2CCN(c3ccc(F)cc3)CC2)c1	.	.	.	-13.0%	-20.0%	.	-11.4%	?
CC(C)N1C(=O)S/C(=C/c2ccccc2OCc2ccc(C(=O)O)cc2)C1=O	-7.4%	.	.	10.5%[46.1 µM]	-12.9%	.	?	-6.8%[46.1 µM]
CCOC(=O)NNC(=O)NCCCCCCNC(=O)NNC(=O)OCC	0.0%	5.0%	.	.	-3.9%	.	8.9%	.
CCOc1ccc(C2CC(=O)NC2=O)cc1 (stereo not given)	-3.4%	2.4%	.	.	-11.6%	.	-5.7%	.
COc1ccc(OC)c(-c2nnc(SCC(=O)N3CCOCC3)o2)c1	-6.5%	-0.6%	-0.4%	-19.5%	3.6%	-9.4%	-4.5%	9.0%
CCc1ccc(S(=O)(=O)Nc2ccc3oc(C)c(C(=O)OCCOC)c3c2)cc1	.	.	-12.6%	-21.8%[46.1 µM]	9.6%	6.5%	.	-28.7%[46.1 µM]
CC1CCN(C(=O)COC(=O)C2CCN(S(=O)(=O)c3ccc4c(c3)OCCO4)CC2)CC1	0.3%	.	.	4.4%	-4.3%	.	-18.0%	?
COc1cc(C(c2c(C)[nH][nH]c2=O)c2c(C)[nH][nH]c2=O)ccc1OC(C)C	1.6%	-0.3%	-2.3%	-5.6%	?	-12.0%	.	0.0%
O=C(Cc1cccs1)N1CCN(c2cccc(Cl)c2)CC1	0.3%	-0.1%	.	?	-6.0%	.	-3.3%	7.6%[46.1 µM]
COc1ccc(Nc2nc3c(S(=O)(=O)c4ccc(Br)cc4)nnn3c3ccsc23)c(OC)c1	.	.	0.6%	-1.5%[46.1 µM]	-18.0%	5.4%	.	.
C=CC[n+]1c(-c2ccc(OCC)cc2)csc1NNC(=O)Nc1ccccc1	2.4%	8.6%	-3.9%	?	.	?	7.1%	-7.1%
S=C=Nc1cccc(C2(N3CCCCC3)CCCCC2)c1	.	.	-7.1%	.	-23.7%&-22.4%	-1.5%	4.1%[18.4 µM]	.
S=C(NCC1CCCO1)Nc1cccc(Cl)c1 (stereo not given)	0.2%	6.5%	.	24.0%	51.7%[activator]	.	-1.0%	7.3%
COc1ccc(NC(=O)C2c3cc(OC)c(OC)cc3C(=O)N(C)C2c2cccnc2)cc1OC (stereo not given)	3.2%	1.2%	6.1%	0.5%	-4.6%	-2.2%	19.3%	0.2%&0.2%[46.1 µM]
O=C(O)CCC(=O)NNc1ncnc2ccccc12	-0.6%	0.9%	.	-0.2%[46.1 µM]	3.7%	.	8.6%	17.1%[46.1 µM]
COc1cc(/C=C2\SC(=S)N(CCC(=O)N3CCCCC3)C2=O)cc(OC)c1OC	1.4%	17.4%	.	?	28.2µM*	.	-2.0%	?
OCCNC(=S)Nc1cccc(Cl)c1Cl	0.5%	3.0%	.	2.1%	0.5%	.	0.3%	5.5%[46.1 µM]
Cc1csc(NC(=O)Nc2ccc(Cl)cc2)n1	0.9%	0.3%	-0.1%	1.5%	38.0%[activator]	?	-4.0%	-15.5%
N#Cc1ccc(C(=O)NC2CCCCCCC2)cc1	-10.4%	-14.4%	.	?	17.2%	.	-1.4%	?
O=C1CCC(=O)N1CNc1cccnc1	1.9%	0.2%	1.7%	11.3%	18.7%	-5.2%	-13.9%	25.3%
COc1cccc(OC)c1C(=O)Nn1c(-c2cccc(C)c2)nc2ccccc2c1=O	0.3%	.	.	-24.2%	-13.6%	.	-2.9%	?
